High-throughput results: PubChem BioAssay, several laboratories
Bfl-1 A1 inh – inhibitors of the anti-apoptotic protein A1, read as caspase activation; caspase activation, % (no concentration beside the values); AID 2462; hit rate 0.066% among 330,000; MEF A1-2A-BIM cells, Caspase-Glo 3/7 luminescence, 3 h; percent of clofoctol response, vehicle zero;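 active = over half of replicate activation scores above 10%, or exactly half above 10 with the replicate mean above 10; inconclusive = replicate mean below 10 yet half the replicates above 10; inactive = over half of replicates below 10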;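 note: wells of about 30 µL received 50 nL stock; many hits fall short of the cut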
Calb FLC – C. albicans growth modulation with fluconazole; growth inhibition, % (no concentration beside the values); C. albicans CaCi-2 (fluconazole-resistant clinical isolate) + fluconazole, Alamar Blue growth, 48 h; AID 1979; hit rate 0.57% among 300,000;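 active = most replicates above 75%; inconclusive = exactly half above 75%; inactive = most below 75%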;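 note: all wells also contain fluconazole at 8 µg/ml as a sub-toxic cotreatment; 0% = median of DMSO wells and 100% = median of geldanamycin control wells; wells of about 8 µL received 7.5 nL stock; the first replicate is given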
Beta apoptosis – beta cell apoptosis inhibition | INS-1E cytokine-induced death, ATP luminescence, 48 h; percent of positive-control rescue, neutral wells zero | protection from apoptosis, % (concentration not given with the values) | hit rate 0.8% among 300,000 | AID 435005;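 active = all replicates at 75% or more, or half of them and the mean; inconclusive = half reach 75% but not the mean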;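 note: 0% = cytokine-treated negative control wells and 100% = positive control rescue; higher means more ATP so stronger rescue from cytokine killing; wells of about 40 µL received 100 nL stock; the first replicate is given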
rRNA inh HTS – inhibits bacterial ribosomal RNA function over humanized ribosomes; E. coli WT GFP vs humanized-ribosome RFP mutants, fluorescence, 24 h; active compounds read low; DMSO median 0, no signal -100; GFP signal change (wild-type ribosome), % (concentration not given with the values); hit rate 1.6% among 350,000; AID 720706;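 active = significant combined selectivity score with lowered wild-type GFP, culture density cut under 30%, mutant RFP and density less affected; inactive = any of these conditions unmet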; note: one replicate is shown; some compounds called inactive have numbers as strong as hits
LANA-H2B inh – blocks KSHV LANA binding to histone H2A/H2B; Q9QR71; cell-free LANA-H2A/H2B peptide, fluorescence polarization; inhibition, % (test concentration not listed); hit rate 0.6% among 320,000; AID 2629; in the data active = inhibition mostly above about 10%, no sharp cut-off; inactive = mostly below about 6.7%;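 note: stock transfer was 7.5 nL into about 10 µL; 0% = median of vehicle wells and 100% = median of positive control wells; one replicate is shown; the record names a cut of 25% in any replicate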
ALR H2O2 inh – blocks human ALR sulfhydryl oxidase activity | P55789 | purified ALR, DTT oxidation, H2O2 HRP-luminol luminescence | inhibition, % (concentration not given with the values) | hit rate 3.8% among 290,000;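 active = mean and each replicate at 75% or more; inconclusive = only one of the two met; inactive = neither met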;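 note: stock transfer was 7.5 nL into about 7.5 µL; 0% = neutral wells and 100% = wells with inactivated enzyme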
Target sequence (P55789 whole entry, looked up): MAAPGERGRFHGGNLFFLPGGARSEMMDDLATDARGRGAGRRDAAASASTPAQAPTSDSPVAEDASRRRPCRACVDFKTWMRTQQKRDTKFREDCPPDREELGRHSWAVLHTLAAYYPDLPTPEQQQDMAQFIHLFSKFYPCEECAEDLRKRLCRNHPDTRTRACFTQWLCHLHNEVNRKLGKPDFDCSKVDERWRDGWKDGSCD
T cruzi inh – T. cruzi replication inhibition | T. cruzi beta-gal in NIH3T3, luminescence, 90 h | inhibition, % (concentration not given with the values) | hit rate 1.4% among 300,000 | AID 1885;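 active = mean inhibition across valid replicates above about 55%, limit read from the data; inconclusive = mean below that limit but half or more replicates reach it; inactive = mean below it, under half of replicates reach it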;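 note: signal also drops with host cell toxicity which is not excluded here; 0% = plate median of DMSO wells and 100% = zero luminescence signal; higher percent means less beta-gal luminescence so fewer parasites; stock transfer was 50 nL into about 50 µL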
Beta2AR agonist – activates human beta-2 adrenergic receptor causing internalization; response, % (no concentration beside the values); Am2.2-beta2AR cells, FAP receptor internalization, flow cytometry; reference of the scale not given here; hit rate 0.43% among 340,000;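 active = response above a set limit, near 3 SD of response in nonfluorescent compounds, cut at about 42% in these data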;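 note: stock transfer was 100 nL into about 11 µL; a reference agonist was the positive control; negative values mostly stem from fluorescent compounds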
Target sequence (P07550 whole entry, looked up): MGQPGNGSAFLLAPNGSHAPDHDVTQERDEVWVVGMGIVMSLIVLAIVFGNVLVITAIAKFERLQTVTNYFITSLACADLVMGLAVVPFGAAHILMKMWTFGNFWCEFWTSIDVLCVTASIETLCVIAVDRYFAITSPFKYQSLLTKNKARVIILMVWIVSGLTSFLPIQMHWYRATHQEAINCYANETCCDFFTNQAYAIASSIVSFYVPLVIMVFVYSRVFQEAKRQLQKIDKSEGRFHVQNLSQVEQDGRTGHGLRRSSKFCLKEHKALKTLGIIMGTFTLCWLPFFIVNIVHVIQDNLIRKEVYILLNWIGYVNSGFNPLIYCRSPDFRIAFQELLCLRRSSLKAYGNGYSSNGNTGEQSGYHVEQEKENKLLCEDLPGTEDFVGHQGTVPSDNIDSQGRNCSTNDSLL
rRNA inh HTS OD600 – recorded beside rRNA inh HTS, whose call it bears; OD600 change, %; measured here: OD600 growth;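 optical density of the mix in the first replicate; 0 = DMSO median and -100 = no signal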
rRNA inh HTS RFP – second read-out of rRNA inh HTS, no call of its own (marks repeat the call); RFP signal change, %; measured here: RFP humanized mutant strains;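 first replicate; 0 = DMSO median and -100 = no signal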
Starred values were filed as active, the others as inactive; ? = inconclusive; . = not tested or not shown; & = joins results of further samples. This is a subset (hit frequency here may not be typical).

SMILES	Bfl-1 A1 inh	Calb FLC	Beta apoptosis	rRNA inh HTS	rRNA inh HTS OD600	rRNA inh HTS RFP	LANA-H2B inh	ALR H2O2 inh	T cruzi inh	Beta2AR agonist
COc1ccc(-c2cc(C)no2)cc1S(=O)(=O)NCC1CCN(Cc2cc(C)ccc2C)CC1	-0.1	1	-6	-1	-2	6.6	0.6	-1	35	14
CCCC(=O)Nc1c(-c2ccc(OC)cc2)c(=O)c2ccccc2n1C	0.7	42	-1	.	.	.	3.3	2	0	1
CCOC(=O)c1c(CN2CCCCC2)oc2ccc(O)cc12	0.3	-8	2	.	.	.	-0.9	17	23	-6
CC(C)C[C@H](NC(=O)c1[nH]cnc1C(=O)N[C@@H](C)C(=O)OCc1ccccc1)C(=O)OCc1ccccc1	0.3	.	-1	2	6	0.2	7.3	1	.	0
N#C/C(=C\C1=C(N2CCOCC2)C(=C\c2ccc(Cl)cc2)/CC1)C(=O)Nc1ccccc1F	-0.1	25	-6	6	4	30	-0.2	.	-12	-118
COc1ccc(CC(=O)Nc2ccc3nc(C)sc3c2)cc1OC	0.9	19	-5	8	-11	2.2	-3.0	-6	-14	2
c1ccc(Oc2ccc(-c3ccnc4ncnn34)cc2)cc1	0.1	44	-7	0	0	-1.0	0.3	-27	-13	-39
Cc1noc(C)c1COC(=O)CNC(=O)c1ccc(Cl)cc1	-0.7	0	-4	5	6	-0.5	1.7	-5	2	-5
COc1ccc(C(=O)CSc2nnc(-c3cc(C)cc(C)c3)o2)cc1	-0.7	14	-6	4	-4	3.7	2.8	1	6	-1
CC(=O)Nc1ccc2c(c1)nc(CCNC(=O)c1ccccc1)n2C	-0.8	0	-4	.	.	.	-3.6	-7	-3	-4
CCCC(C(=O)Nc1ccc(S(=O)(=O)N2CCCC2)cc1)c1ccccc1 (stereo unspecified)	-0.8	1	.	-5	-11	1.2	-4.2	.	20	13
O=C(CSc1nnc(-c2ccccc2O)n1-c1ccccc1)Nc1cccc(C(=O)O)c1	0.4	-3	-7	6	5	-1.4	-2.1	-1	-5	-1
O=C(C(=O)N1CCc2ccccc2C1)N1CCc2ccccc2C1	0.2	-7	-5	2	8	0.7	-6.3	-11	6	.
COc1ccc(CCNS(=O)(=O)c2cccc(C)c2)cc1OC	0.2	40	2	.	.	.	0.3	-27	-9	1
CCOC(=O)c1c(NC(=O)C2CCCN(S(=O)(=O)c3ccccc3)C2)sc2c1CCCC2 (stereo unspecified)	2.5	12	-2	.	.	.	-0.3	-1	33	0
COc1ccc(CCNC(=O)CSc2nc(O)c(CC(C)C)c(=O)[nH]2)cc1OC	0.5	4	1	.	.	.	6.7	98*	-7	-2
Cc1cc(N2CCC(C)CC2)nc2cccc(O)c12	-0.2	-11	.	-2	10	-1.3	-1.7	46	-6	-5
O=C(COC(=O)c1ccccc1Nc1ccc(SC(F)F)cc1)NC1CC1	-7.0	4	9	1	-3	2.4	3.1	.	9	-15
CC(C)C(=O)Nc1ccc(N2CCN(c3ccc(F)cc3)CC2)cc1	-0.6	4	0	2	7	-4.2	-5.8	-17	-19	-7
CC(NC(=O)C1CCN(C(=O)Nc2ccccc2)CC1)c1ccccc1Cl (stereo unspecified)	-1.0	.	5	-1	8	0.5	2.2	-2	.	1
CC(C)NC(=O)N1c2ccccc2Sc2ccccc21	0.4	-11	7	-4	-2	0.3	3.0	73	0	-8
NC1=NC(=O)/C(=C/c2ccccc2OS(=O)(=O)c2ccccc2)S1	0.5	-5	-9	.	.	.	-6.1	-1	3	8
O=C(O)c1cc(-c2ccc(N3CCOCC3)cc2)nn1-c1ccc(F)cc1F	0.9	9	-1	11	7	-0.4	-0.9	14	0	-3
CCC(=O)Nc1cccc(-c2cn3ccccc3n2)c1	-0.3	42	0	.	.	.	0.5	.	7	-25
COc1ccc2[nH]c(C)cc(=O)c2c1	-0.4	?	-1	.	.	.	-1.3	1	-7	-2
O=C1CC2(CC(c3ccc(Cl)cc3)=NO2)C(=O)N1c1ccccc1 (stereo unspecified)	-0.9	-18	-4	7	0	-0.2	8.7	-3	.	-3
CCOn1c(=O)c(-c2ccc(OC)c(OC)c2)[n+]([O-])c2ccccc21	-0.1	12	-1	.	.	.	0.9	-1	-5	-3
COc1cccc2c(=O)cc(C)n(CC(=O)Nc3ccc(C)c(C)c3)c12	1.1	20	17	.	.	.	-2.8	4	19	5
CC(C(=O)N1c2ccccc2CC1C)N1CCN(S(=O)(=O)c2ccccc2F)CC1 (stereo unspecified)	-0.1	.	-5	2	-22	-0.5	0.1	-4	.	-4
CCn1cc2c(c1-c1cccc(C)c1)c(=O)n(C)c(=O)n2C	-0.6	16	0	.	.	.	-2.4	3	-14	3
COc1ccc(-n2nnc3c(SCC(=O)OCc4ccccc4)ncnc32)cc1	-0.2	-3	-4	.	.	.	3.3	-12	-11	-2
COc1ccc(C(CC(=O)Nc2nccs2)C(C)C)cc1 (stereo unspecified)	-1.4	-17	2	-9	-7	0.7	-5.5	0	-3	-5
CNCCCCOc1ccc(C(C)(C)C)cc1Cl	1.0	-4	-6	-4	-12	0.0	-0.8	3	59*	16
COCCn1c(SCc2cccc([N+](=O)[O-])c2)nc2ccccc2c1=O	-0.8	15	5	-15	-14	-4.5	-5.7	-3	15	31
C=CCN(CC=C)C(=O)c1ccccc1NC(=O)c1ccccc1C	-0.1	-3	1	.	.	.	0.1	.	7	-1
C/C=C/C(=O)NCCc1ccc(OC)c(OC)c1	1.1	?	-4	2	5	0.1	-1.9	-3	-11	8
COc1ccc(NC(=O)CSC2=NCCN2)cc1	-0.2	-12	-7	9	6	5.0	-4.8	.	5	5
COc1cc(SC)ccc1C(=O)NCCOc1ccc(F)cc1	-0.7	-2	5	-56	-80	-28	-3.0	30	10	-9
S=C(NCc1ccc(Cl)cc1)NCc1ccccn1	-0.1	-35	-3	-11	-8	0.5	-0.4	.	.	3
COc1ccc(/C=C/c2nc(-c3ccccc3)cc(=O)[nH]2)cc1	-0.8	8	-9	-1	-1	2.7	0.9	.	9	-17
Cc1csc(SCC(=O)NC(=O)NC(C)C)n1	0.1	-3	0	18	11	3.0	0.0	-14	-17	6
CCOc1ccccc1NC(=O)CSC1=C(C#N)C(c2ccco2)C(C(=O)Nc2nc3ccccc3s2)=C(C)N1 (stereo unspecified)	0.0	-3	1	.	.	.	-1.5	5	26	0
Cc1ccccc1NC(=O)CSc1nc2n(n1)CCCCC2	-1.0	-10	-8	.	.	.	-2.3	-7	-10	-2
O=C1NC(=S)N/C1=C/c1cc2c(cc1[N+](=O)[O-])OCO2	-0.9	0	-9	21	26	-1.9	-0.3	4	-18	7
Cc1ccc(OCC(=O)N2CCN(c3nnc(-c4ccccc4)c4ccccc34)CC2)cc1	0.0	-1	5	.	.	.	0.1	-3	70*	6
O=C(CN1C(=O)/C(=C/c2ccccc2)SC1=S)NC1CCS(=O)(=O)C1 (stereo unspecified)	-2.1	-2	-1	-2	-17	-1.6	0.1	.	-10	-1
CCOc1ccc(NS(=O)(=O)c2ccc3[nH]cc(C(=O)N(CC)CC)c(=O)c3c2)cc1	1.3	.	.	.	.	.	-2.5	5	.	2
COc1ccc(OC)c(-n2nnnc2SCC(=O)O)c1	-0.3	1	0	.	.	.	-0.7	-4	-1	1
CCCCCCCCN1[C@@H](CC(=O)OC)c2cc(F)ccc2S1(=O)=O	-1.0	-2	2	-4	-5	1.8	0.5	49	11	-4
Cc1ccc([C@@H]2CC=C(C(=O)O)[C@H](c3ccccc3)N2S(=O)(=O)c2ccc(C)cc2)cc1	-0.2	.	-3	-12	-12	-1.0	-2.7	2	.	3
O=C(c1ccc(-c2nnc(Nc3ccccc3)c3ccccc23)cc1)N1C[C@H]2C[C@H](C1)c1cccc(=O)n1C2	0.4	3	18	.	.	.	0.3	7	13	7
CCOC(=O)c1[nH]c2ccccc2c1NC(=O)c1ccc(Br)o1	0.2	11	.	-19*	-3.1*	0.9*	6.6	1	13	-1
CC(C)(C)c1oc(C(=O)O)cc1CN1CCOCC1	0.8	-6	-9	12	4	5.3	2.3	2	15	-8
COc1ccc(CCNC(=O)C2CCN(S(=O)(=O)c3cccs3)CC2)cc1OC	0.6	-20	-4	2	7	-1.1	-70	-2	-12	2
CCOc1ccccc1NC(=O)c1sc2ncn(CC(=O)N3CCOCC3)c(=O)c2c1C	-0.3	1	-2	-1	13	-0.4	-3.2	-3	0	10
COc1ccc(NC(=O)N(C)C[C@H]2Oc3c(NC(=O)Nc4ccc(C(F)(F)F)cc4)cccc3C(=O)N([C@H](C)CO)C[C@@H]2C)cc1	0.8	.	0	5&0	14&3	3.0&-1.8	4.4	-4	.	18
CCn1c(SCc2ccccc2)nnc1-c1cccs1	-0.4	-1	10	.	.	.	3.5	-1	22	-7
CN(C)/C=C(\C#N)c1nc2ccccc2[nH]1	-2.4	7	-8	.	.	.	5.1	7	-16	-9
COc1cc([N+](=O)[O-])ccc1NC(=O)NCCCN1CCCC1=O	0.0	0	-7	3	5	5.1	0.1	-7	16	2
COCCNC(=O)/C(C#N)=C/c1cccc(OCc2ccccc2)c1	-0.8	-1	-13	-27*	-3.3*	-7.7*	-3.3	0	-19	-1
(more compounds)
SMILES	Bfl-1 A1 inh	Calb FLC	Beta apoptosis	rRNA inh HTS	rRNA inh HTS OD600	rRNA inh HTS RFP	LANA-H2B inh	ALR H2O2 inh	T cruzi inh	Beta2AR agonist
Cc1ccc(/C=C/C(=O)Nc2ncc(C)s2)o1	-0.8	-3	-3	10	0	-0.2	-0.3	1	-28	5
COCCNC(=O)c1ccccc1NC(=O)c1ccccc1N(C)S(=O)(=O)c1ccccc1	-0.5	1	5	.	.	.	-8.5	-2	11	-2
COc1cc(NC(=S)N2CCN(c3ccccn3)CC2)cc(OC)c1OC	0.5	-7	-5	4	1	1.3	1.5	4	-15	-9
COc1ccc(C(=O)Cn2nnc(-c3ccccc3-n3cnnn3)n2)cc1	-0.9	-4	-1	-7	1	-2.2	-0.7	3	2	-4
Cc1ccc(N)c(C(=O)CCCCC(=O)O)c1	-0.8	-11	.	.	.	.	-5.9	-7	-18	0
Cc1ccc(C)c(NC(=O)C(Sc2nncn2C)c2ccccc2)c1 (stereo unspecified)	-0.8	18	-3	.	.	.	-6.0	-4	-14	3
COc1cc(/C=C/C(=O)N2c3ccccc3Sc3ccc(C(F)(F)F)cc32)cc(OC)c1OC	1.9	-1	-5	.	.	.	2.0	1	46	2
O=C(NCc1ccco1)c1csc(Nc2ccccc2Cl)n1	0.1	32	-4	.	.	.	-2.6	0	-6	14
CC1Cc2ccccc2N1C(=O)CSc1nncn1C (stereo unspecified)	0.0	1	-4	10	7	-2.5	2.6	-8	4	-1
O=C(COC(=O)c1ccccc1O)Nc1ccc(S(=O)(=O)N2CCCCC2)cc1	0.6	-9	1	-27	-27	-1.7	0.7	0	-4	4
Cc1ccc(NC(=O)c2ccc3c(c2)C(=O)N(Cc2cccnc2)C3=O)c(C)c1	0.3	-5	-5	11	1	-0.1	-2.1	.	-10	3
